Yeast UUG start = modulators of start codon recognition fidelity in yeast; S. cerevisiae UUG-firefly luciferase reporter, luminescence/redox ratio; activity score, % at 18.7 µM; hit rate 0.13% among 350,000; AID 602363;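 active = replicate mean at a twofold rise or more, about +100% in these data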;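 note: firefly luciferase made from a UUG start codon reports start codon fidelity; reporter light over untreated wells divided by growth signal over untreated wells; some hits fall short of that in this replicate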
* hit, by the source's call.

Results for COc1ccc(CN2[C@H](CO)[C@@H]3c4ccccc4N(C(=O)c4ccccc4)C[C@@H]32)cc1 ?
Yeast UUG start: 1

Results for C[C@H](CO)N1C[C@H](C)[C@H](CN(C)Cc2ccc(Cl)c(Cl)c2)Oc2ccc(NC(=O)CCN3CCOCC3)cc2CC1=O ?
Yeast UUG start: -9

How did CO[C@@H]1CN(C)C(=O)c2cc(NC(=O)C3CCC3)ccc2OC[C@@H](C)N(C(=O)NC(C)C)C[C@@H]1C do in these assays?
Yeast UUG start: 4

How did Cc1ccc(S(=O)(=O)Nc2ccc3c(c2)C(=O)N([C@@H](C)CO)C[C@@H](C)[C@@H](CN(C)Cc2ccc4c(c2)OCO4)O3)cc1 do in these assays?
Yeast UUG start: 2

How did O=C(c1ccccc1F)N1C[C@H]2[C@@H](c3ccccc31)[C@H](CO)N2C(=O)c1ccncc1 do in these assays?
Yeast UUG start: 1

Results for O=C(Nc1cccc(F)c1)N1C[C@H]2[C@@H](c3ccccc31)[C@@H](CO)N2C(=O)Cc1ccccc1 ?
Yeast UUG start: 3

What do the screens show for `CCC(=O)Nc1ccc2c(c1)C(=O)N(C)C[C@@H](OC)[C@@H](C)CN(C(=O)Cc1ccccn1)[C@H](C)CO2`?
Yeast UUG start: -6

Results for CO[C@@H]1CN(C)C(=O)c2cc(NC(=O)c3ccccc3F)ccc2OC[C@H](C)N(C(=O)c2ccccc2F)C[C@H]1C ?
Yeast UUG start: 7

Results for COc1ccc(NC(=O)Nc2cccc3c2O[C@H](CN(C)CC2CCCCC2)[C@H](C)CN([C@H](C)CO)C3=O)cc1 ?
Yeast UUG start: 2

What do the screens show for `C[C@@H]1CN([C@H](C)CO)C(=O)Cc2cc(NS(C)(=O)=O)ccc2O[C@@H]1CN(C)C(=O)Nc1ccccc1`?
Yeast UUG start: 10

How did O=C(C[C@@H]1C[C@@H]2c3cc(NC(=O)Nc4ccccc4F)ccc3O[C@@H]2[C@@H](CO)O1)NCCc1ccccc1 do in these assays?
Yeast UUG start: -21

What do the screens show for `O=C(C[C@H]1CC[C@@H]2[C@H](COC[C@H](O)CN2S(=O)(=O)c2ccc(F)cc2)O1)N[C@H]1CCN(Cc2ccccc2)C1`?
Yeast UUG start: 13

What do the screens show for `COc1cccc(-c2ccc3c(c2)[C@H]2[C@H](CCN2C(=O)Nc2ccccc2OC)[C@@H](CO)N3C)c1`?
Yeast UUG start: -8

How did CO[C@@H]1CN(C)C(=O)c2ccc(NC(=O)C3CC3)cc2OC[C@@H](C)NC[C@H]1C do in these assays?
Yeast UUG start: 6

Results for O=C(Cc1ccccc1)N1C[C@@H]2[C@H](c3ccccc31)[C@H](CO)N2C(=O)C1CC1 ?
Yeast UUG start: 33

What do the screens show for `Cc1noc(C)c1S(=O)(=O)Nc1cccc2c1O[C@H](CN(C)Cc1ccc(C(=O)Nc3ccccc3N)cc1)[C@H](C)CN([C@@H](C)CO)C2=O`?
Yeast UUG start: -1

How did O=C(Nc1cccc(F)c1)N1C[C@H]2[C@@H](c3ccccc31)[C@H](CO)N2C(=O)c1ccccc1F do in these assays?
Yeast UUG start: 21

Results for COc1ccc(C#Cc2ccc([C@@H]3[C@@H](CO)N4CCCCN(C(=O)Nc5ccccc5)C[C@@H]34)cc2)cc1 ?
Yeast UUG start: 2

Results for O=C(C1CCOCC1)N1C[C@@H]2[C@H](c3ccccc31)[C@@H](CO)N2Cc1ccccc1F ?
Yeast UUG start: -6

How did CCC(=O)Nc1ccc2c(c1)C(=O)N(C)C[C@H](OC)[C@H](C)CN(CC1CC1)[C@H](C)CO2 do in these assays?
Yeast UUG start: -10

What do the screens show for `Cc1noc(C)c1NC(=O)Nc1cccc2c1O[C@@H](CN(C)S(=O)(=O)c1ccc(F)cc1)[C@@H](C)CN([C@@H](C)CO)C2=O`?
Yeast UUG start: 4

Results for Cc1noc(C)c1S(=O)(=O)N(C)C[C@H]1Oc2c(NC(=O)c3cnccn3)cccc2C(=O)N([C@@H](C)CO)C[C@H]1C ?
Yeast UUG start: 11

What do the screens show for `CNC(=O)C[C@H]1CC[C@H]2[C@H](COc3ccc(NC(=O)Nc4cccc(C)c4)cc3C(=O)N2C)O1`?
Yeast UUG start: 8

What do the screens show for `CCC(=O)N1[C@@H](CO)[C@@H](c2ccc(-c3ccccc3)cc2)[C@@H]1CNC(=O)COC`?
Yeast UUG start: 1

What do the screens show for `O=C(C[C@H]1CC[C@@H]2[C@H](COC[C@@H](O)CN2C(=O)c2ccccc2F)O1)NCc1ccc(Cl)cc1`?
Yeast UUG start: 5

What do the screens show for `COc1ccc(-c2ccc3c(c2)[C@H]2[C@H](CCN2C(=O)Nc2ccccc2OC)[C@H](CO)N3C)cc1`?
Yeast UUG start: -1

How did C[C@H]1CN([C@@H](C)CO)C(=O)c2cccc(NC(=O)Nc3ccccc3)c2O[C@@H]1CN(C)CC1CC1 do in these assays?
Yeast UUG start: -10

What do the screens show for `CCC(=O)N1[C@H](CN(C)C(=O)c2cccc(F)c2)[C@@H](c2ccccc2)[C@@H]1CO`?
Yeast UUG start: -1

Results for CC(C)NC(=O)N(C)C[C@@H]1Oc2ccc(NS(=O)(=O)c3ccc(F)cc3)cc2C(=O)N([C@H](C)CO)C[C@H]1C ?
Yeast UUG start: -22

What do the screens show for `CCN(C[C@H]1[C@H](c2ccc(-c3ccccc3)cc2)[C@H](CO)N1CC1CC1)C(C)=O`?
Yeast UUG start: 2

Four entries picked at random from the list so far, as already listed:
Results for Cc1noc(C)c1S(=O)(=O)N(C)C[C@H]1Oc2c(NC(=O)c3cnccn3)cccc2C(=O)N([C@@H](C)CO)C[C@H]1C ?
Yeast UUG start: 11

What do the screens show for `CCC(=O)N1[C@@H](CO)[C@@H](c2ccc(-c3ccccc3)cc2)[C@@H]1CNC(=O)COC`?
Yeast UUG start: 1

How did C[C@H]1CN([C@@H](C)CO)C(=O)c2cccc(NC(=O)Nc3ccccc3)c2O[C@@H]1CN(C)CC1CC1 do in these assays?
Yeast UUG start: -10

What do the screens show for `CNC(=O)C[C@H]1CC[C@H]2[C@H](COc3ccc(NC(=O)Nc4cccc(C)c4)cc3C(=O)N2C)O1`?
Yeast UUG start: 8

The listing continues:
Results for C[C@H]1CN([C@@H](C)CO)C(=O)c2cc(NS(=O)(=O)c3cccs3)ccc2O[C@H]1CN(C)Cc1ccc2c(c1)OCO2 ?
Yeast UUG start: -5

Results for COc1cccc(-c2ccc3c(c2)[C@H]2[C@H](CCN2C(=O)c2cccc(F)c2)[C@H](CO)N3)c1 ?
Yeast UUG start: 4

How did CN1CCN(C(=O)C[C@H]2CC[C@H]3[C@@H](COC[C@@H](O)CN3Cc3cccc(-c4ccncc4)c3)O2)CC1 do in these assays?
Yeast UUG start: -11

How did Cc1noc(C)c1NC(=O)Nc1ccc2c(c1)C(=O)N([C@H](C)CO)C[C@@H](C)[C@H](CN(C)Cc1ccc(Oc3ccccc3)cc1)O2 do in these assays?
Yeast UUG start: -5

What do the screens show for `CC=Cc1ccc2n(c1=O)C[C@H]1[C@H](CO)[C@@H](C(=O)NCCC)N(CC3CCOCC3)[C@@H]21` (mixture of isomers)?
Yeast UUG start: 6

How did O=C(c1cccc(F)c1)N1CC[C@@H]2[C@H]1c1cc(-c3cccc(F)c3)ccc1N[C@@H]2CO do in these assays?
Yeast UUG start: -14

How did CC(C)(O)C#Cc1ccc([C@H]2[C@@H](CO)N3CCCCN(C(=O)c4ccncc4)C[C@H]23)cc1 do in these assays?
Yeast UUG start: -8

Results for CCCC#Cc1ccc2c(c1)[C@H]1[C@H](CCN1S(=O)(=O)c1ccc(C)cc1)[C@H](CO)N2C ?
Yeast UUG start: 15

How did CO[C@@H]1CN(C)C(=O)c2cc(NC(=O)C3CC3)ccc2OC[C@@H](C)N(C(=O)c2cnccn2)C[C@H]1C do in these assays?
Yeast UUG start: 0

What do the screens show for `CCC(=O)N1[C@@H](CO)[C@@H](c2ccc(-c3cccnc3)cc2)[C@@H]1CN(CC)C(C)=O`?
Yeast UUG start: -7

What do the screens show for `CN1C(=O)c2cc(NS(=O)(=O)c3ccc(F)cc3)ccc2OC[C@H]2O[C@H](CC(=O)NCC(F)(F)F)CC[C@@H]21`?
Yeast UUG start: 8

What do the screens show for `Cc1cccc(S(=O)(=O)N2CCCCN3[C@H](CO)[C@@H](c4ccc(-c5cccnc5)cc4)[C@@H]3C2)c1`?
Yeast UUG start: 42

How did COc1ccc(C#Cc2ccc([C@@H]3[C@@H](CO)N4CCCCN(Cc5ccccc5F)C[C@@H]34)cc2)cc1 do in these assays?
Yeast UUG start: -5

Results for C[C@@H]1CN([C@H](C)CO)C(=O)c2cccc(NC(=O)c3cnccn3)c2O[C@@H]1CN(C)C(=O)Nc1ccccc1 ?
Yeast UUG start: 0

Results for O=C(Nc1ccccc1F)N1C[C@H]2[C@@H](c3ccccc31)[C@@H](CO)N2C(=O)C1CC1 ?
Yeast UUG start: -8

What do the screens show for `CN(C)C(=O)c1cccc(-c2ccc3c(c2)[C@H]2[C@H](CCN2Cc2ccccc2F)[C@H](CO)N3)c1`?
Yeast UUG start: -7

Results for C[C@@H]1CN([C@H](C)CO)C(=O)c2cc(NC(=O)CCN3CCOCC3)ccc2O[C@H]1CN(C)S(=O)(=O)c1cn(C)cn1 ?
Yeast UUG start: 1

How did C[C@H]1CN([C@@H](C)CO)C(=O)c2cc(NC(=O)Nc3ccc4c(c3)OCO4)ccc2O[C@@H]1CN(C)Cc1ccc(C(=O)O)cc1 do in these assays?
Yeast UUG start: 6

What do the screens show for `Cc1ccc(S(=O)(=O)N(C)C[C@H]2Oc3ccc(NC(=O)C4CC4)cc3C(=O)N([C@H](C)CO)C[C@H]2C)cc1`?
Yeast UUG start: -15

How did CO[C@@H]1CN(C)C(=O)c2cc(NC(=O)C3CCCC3)ccc2OC[C@H](C)NC[C@H]1C do in these assays?
Yeast UUG start: -10

Results for COCCNC(=O)C[C@@H]1CC[C@@H]2[C@H](COc3ccc(NC(=O)c4cnccn4)cc3C(=O)N2C)O1 ?
Yeast UUG start: -13

Results for C[C@H]1CN([C@@H](C)CO)C(=O)c2cc(NS(=O)(=O)c3cccs3)ccc2O[C@@H]1CN(C)Cc1ccc(-c2ccccc2)cc1 ?
Yeast UUG start: 25

What do the screens show for `C[C@H](CO)N1C[C@H](C)[C@H](CN(C)S(=O)(=O)c2ccc(F)cc2)Oc2ccc(NS(C)(=O)=O)cc2C1=O`?
Yeast UUG start: -5

What do the screens show for `COc1cccc(S(=O)(=O)Nc2ccc3c(c2)[C@H]2C[C@@H](CC(=O)N(C)C)O[C@H](CO)[C@H]2O3)c1`?
Yeast UUG start: -1

Results for CCC(=O)N1[C@H](CO)[C@H](c2ccc(C3=CCCC3)cc2)[C@H]1CNC(=O)CN(C)C ?
Yeast UUG start: 19

How did Cc1noc(C)c1NC(=O)N(C)C[C@@H]1Oc2ccc(NC(=O)Cc3cn(C)c4ccccc34)cc2C(=O)N([C@@H](C)CO)C[C@@H]1C do in these assays?
Yeast UUG start: 22

How did CN1C(=O)c2cc(NC(=O)c3cnccn3)ccc2OC[C@@H]2O[C@@H](CC(=O)N[C@@H]3CCN(Cc4ccccc4)C3)CC[C@H]21 do in these assays?
Yeast UUG start: -2

What do the screens show for `C[C@H](CO)N1C[C@H](C)[C@@H](CN(C)C(=O)Nc2cccc3ccccc23)Oc2ccc(NC(=O)Cc3cn(C)c4ccccc34)cc2C1=O`?
Yeast UUG start: -8

What do the screens show for `CCNC[C@@H]1[C@H](c2ccc(-c3ccc(F)cc3)cc2)[C@H](CO)N1S(C)(=O)=O`?
Yeast UUG start: -13

What do the screens show for `COc1ccc(CN(C)C[C@@H]2Oc3c(NC(=O)Nc4ccc(F)cc4)cccc3C(=O)N([C@H](C)CO)C[C@@H]2C)cc1`?
Yeast UUG start: -11

How did C[C@H]1CN([C@@H](C)CO)C(=O)c2cccc(NC(=O)c3ccncc3)c2O[C@@H]1CN(C)Cc1ccc(Oc2ccccc2)cc1 do in these assays?
Yeast UUG start: -3

How did C[C@H](CO)N1C[C@H](C)[C@H](CN(C)C)Oc2ccc(NC(=O)Cc3cn(C)c4ccccc34)cc2C1=O do in these assays?
Yeast UUG start: -6

What do the screens show for `C[C@@H]1CN([C@H](C)CO)C(=O)c2cccc(NS(=O)(=O)c3cccs3)c2O[C@H]1CN(C)C(=O)Nc1cccc2ccccc12`?
Yeast UUG start: -5

How did COc1ccccc1NC(=O)N1CCCCN2[C@@H](CO)[C@@H](c3ccc(-c4ccc(C)cc4)cc3)[C@@H]2C1 do in these assays?
Yeast UUG start: 14

How did CN(C)CC#Cc1ccc([C@@H]2[C@H](CO)N3CCCCN(C(=O)C4CCCC4)C[C@@H]23)cc1 do in these assays?
Yeast UUG start: 6

How did O=C(C[C@H]1CC[C@H]2[C@@H](COC[C@@H](O)CN2C(=O)Nc2ccc(Cl)c(Cl)c2)O1)NCc1ccc(F)cc1 do in these assays?
Yeast UUG start: 31

How did COc1ccc(-c2ccc([C@H]3[C@H]4CN(C(=O)c5ccc(F)cc5)CCCCN4[C@H]3CO)cc2)cc1 do in these assays?
Yeast UUG start: 8

How did C[C@H]1CN([C@@H](C)CO)C(=O)c2cc(NS(=O)(=O)c3cn(C)cn3)ccc2O[C@H]1CN(C)C(=O)Nc1ccc2c(c1)OCO2 do in these assays?
Yeast UUG start: 3

What do the screens show for `CNC[C@@H]1Oc2c(NS(=O)(=O)c3ccccc3)cccc2C(=O)N([C@@H](C)CO)C[C@H]1C`?
Yeast UUG start: -2

Among those listed so far, these have a Cl atom:
Results for C[C@H](CO)N1C[C@H](C)[C@H](CN(C)Cc2ccc(Cl)c(Cl)c2)Oc2ccc(NC(=O)CCN3CCOCC3)cc2CC1=O ?
Yeast UUG start: -9

What do the screens show for `O=C(C[C@H]1CC[C@@H]2[C@H](COC[C@@H](O)CN2C(=O)c2ccccc2F)O1)NCc1ccc(Cl)cc1`?
Yeast UUG start: 5

How did O=C(C[C@H]1CC[C@H]2[C@@H](COC[C@@H](O)CN2C(=O)Nc2ccc(Cl)c(Cl)c2)O1)NCc1ccc(F)cc1 do in these assays?
Yeast UUG start: 31

A stretch taken from the entries so far, as a working copy:
How did C[C@H]1CN([C@@H](C)CO)C(=O)c2cc(NS(=O)(=O)c3cn(C)cn3)ccc2O[C@H]1CN(C)C(=O)Nc1ccc2c(c1)OCO2 do in these assays?
Yeast UUG start: 3

What do the screens show for `CNC[C@@H]1Oc2c(NS(=O)(=O)c3ccccc3)cccc2C(=O)N([C@@H](C)CO)C[C@H]1C`?
Yeast UUG start: -2

The list is partial; count on the stated rates, not on these rows.
